Sa growth inh: S. aureus growth inhibition at 42 and 30 °C, primary screen, LtaS inhibitor project, RN4220, two temperatures; relative growth, % (concentration not given with the values); 170,000 compounds, 0.53% hits; OD600, 20 h, 42 °C; hits give low values; AID 720641, 2013;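 active = growth at 42 °C up to 50% and 20 or more points under that at 30 °C, or under 10% at both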;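 also: 300 nL library stock went into each well; scaled to the means of positive and negative controls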
GIV-Gai inh: inhibitors of GIV peptide binding to Galpha-i3, primary screen, biochemical, fluorescence polarization, FITC-GIV GBA peptide, rat Galphai3 | 90 min; hits give low values; scaled: aluminum fluoride 0%, vehicle 100% | percent of control (FP), % (concentration not given with the values) | 210,000 compounds, 0.42% hits | AID 1224905, 2016;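 active = replicate mean at 85% of control or lower, very high polarization wells dropped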;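 also: wells of about 15 µL received 100 nL stock; the first replicate is given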
Target sequence (P08753 whole entry, looked up): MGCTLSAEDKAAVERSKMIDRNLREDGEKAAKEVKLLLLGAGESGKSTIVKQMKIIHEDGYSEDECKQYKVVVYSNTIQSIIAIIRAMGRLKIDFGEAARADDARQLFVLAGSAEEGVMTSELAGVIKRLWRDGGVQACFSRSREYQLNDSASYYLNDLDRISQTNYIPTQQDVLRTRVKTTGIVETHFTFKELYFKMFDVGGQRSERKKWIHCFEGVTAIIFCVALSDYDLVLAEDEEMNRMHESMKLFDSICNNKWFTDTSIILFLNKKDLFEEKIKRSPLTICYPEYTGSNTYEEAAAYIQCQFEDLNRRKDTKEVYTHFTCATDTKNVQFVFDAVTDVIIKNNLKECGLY
HCMV NEC inh: inhibitors of HCMV UL50-UL53 interaction, biochemical, HTRF; normalized percent inhibition; HCMV UL50-UL53 nuclear egress complex (human cytomegalovirus); inhibition, % (no concentration beside the values); 190,000 compounds, 0.15% hits; AID 1918969, 2023;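 active = both replicates at 50% or more, plus weaker picks with an unusually low signal ratio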;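 also: stock transfer was 100 nL into about 20 µL; 0% = negative control wells and 100% = wells with untagged competitor protein; inactives centre near -12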
Sa growth inh second temp: further read-out of Sa growth inh, marked with its call; relative growth, %; measured here: growth at 30 °C;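 optical density after 20 h as mean of two plates; 100% = untreated growth and lower means inhibition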
Starred values were filed as active, the others as inactive; . = no result given; & = joins results of further samples.

SMILES	Sa growth inh	Sa growth inh second temp	GIV-Gai inh	HCMV NEC inh
CCCCNC(=O)C1CCN(C(=O)N2CC(C)Oc3ccc(Cl)cc32)CC1 (stereo unspecified)	107	87	102	-21
COc1ccc(CNC(=O)CSc2ncc3c(n2)-c2cc(Cl)ccc2N(Cc2ccccc2)S3(=O)=O)cc1	92	75	106	.
Cc1nnc(NC(=O)c2ccc3c(c2)SC2=NS(=O)(=O)CCN23)s1	84	96	.	-40
COc1ccccc1Cn1cc(C(=O)c2ccccc2)c(=O)c2cc(OC)c(OC)cc21	74	46	101	-14
FC(F)(F)c1cc(-c2ccccn2)nc2cc(-c3ccc(Cl)cc3)nn12	.	.	104	11
CCOC(=O)c1cnc2ccc(OCC)cc2c1NCc1ccccc1	101	75	.	-2
CC(Nc1ccc(Br)cn1)c1cc(Cl)ccc1O (stereo unspecified)	38	25	100	-7
Cc1ccccc1Cn1cccc1CNC(=O)NCC1CCCO1 (stereo unspecified)	.	.	98	-18
CCc1nc2onc(C)c2c(=O)n1CC(=O)NCCC1=CCCCC1	.	.	108	-6
CCOc1ccc(N(CC)C(=O)COc2cc(=O)n(C)c3ccccc23)cc1	77	70	95	-16
CCOC(=O)c1cccc(NC(=O)CN2C(=O)CC(C)(C)Sc3ccccc32)c1	124	91	103	-39
O=C1CCN(C(=O)c2ccc(-c3nc4ccccc4s3)s2)CC1	108	92	.	-100
Cc1cccc(Cn2nnc(C(=O)Nc3cc(C)ccc3C)c2N)c1	103	91	96	-28
Cc1cccc(C(=O)OC(C)CN2CCCC2)c1 (stereo unspecified)	91	73	112	-11
Cc1noc2ncnc(N(C)C3CCCCC3)c12	.	.	102	-1
COc1ccc(CCNC(=O)c2ccc(C3SCC(=O)N3CCc3ccccc3)cc2)cc1OC (stereo unspecified)	.	.	102	-14
CC(=O)c1ccc(NS(=O)(=O)c2ccc(Br)s2)cc1	119	79	107	-27
O=C(O)C1C2C=CC(C2)C1C(=O)NCCCn1ccnc1 (stereo unspecified)	89	78	104	-15
CCCn1c(=O)c2cc(F)ccc2n2c(SCc3cc(C)ccc3C)nnc12	.	.	103	-19
CCOC(=O)c1ccccc1NC(=O)CN(c1cc(C(F)(F)F)ccc1Cl)S(C)(=O)=O	99	79	100	-40
COc1ccc(OC)c2c(C)cc(Cl)nc12	108	81	.	-43
CNC(=O)Nc1c[nH]c2cc(Cl)ccc2c1=O	83	89	100	-16
CC(C)Cc1cc(-c2nn3c(COc4ccccc4)nnc3s2)n[nH]1	.	.	104	-26
Cc1ccc2nc(C(F)(F)F)cc(N3CCN(/C=C(/C#N)S(=O)(=O)c4ccccn4)CC3)c2c1	109	86	109	-18
O=C(O)C12CC3CC(C1)CC(n1ncc(NCc4ccc5c(c4)OCO5)c(Cl)c1=O)(C3)C2	102	94	96	-32
SMILES	Sa growth inh	Sa growth inh second temp	GIV-Gai inh	HCMV NEC inh
CC1=C(C(=O)Nc2ccc(C)cc2)C(c2ccc(C)o2)C2=C(CC(C)(C)CC2=O)N1 (stereo unspecified)	98	95	100	-13
Oc1ccc(N=Cc2ccc(F)c(F)c2)cc1N=Cc1ccc(F)c(F)c1	93	80	.	-20
CC1CC(C)CN(S(=O)(=O)c2ccc(NC(=O)CNC(=O)c3ccco3)cc2)C1 (stereo unspecified)	119	106	.	10
COc1ccc(NC(=O)CCn2c(=O)c3cccn3c3ccccc32)c(OC)c1	101	65	104	-13
Cc1nn(Cc2ccc(C(=O)Sc3ccc(C(F)(F)F)cn3)o2)c(C)c1Br	83	84	108	-11
O=C(O)CCc1nn2c3ccccc3nc2n(-c2ccccc2)c1=O	122	83	107	-29
COC(=O)C1=C(C)Nc2ncnn2C1/C=C/c1ccccc1 (stereo unspecified)	112	102	106	2
COc1ccc(-c2noc(N3CCC(C(=O)Nc4cccc(C)c4C)CC3)n2)cc1	92	91	101	.
O=C(CC(SCc1ccco1)c1ccc(O)cc1)c1ccco1 (stereo unspecified)	89	96	.	-18
C[n+]1ccccc1C=NO	95	96	.	-43
COc1ccccc1C1=NS(=O)(=O)N(C)C(C(=O)Nc2cc(OC)c(OC)c(OC)c2)=C1	110	93	102	-54
Cc1cc(C)cc(NC(=O)N2CCC(CN3CCc4ccccc4C3)CC2)c1	116	94	106	.
FC(F)(F)c1cccc(N2CCN(CCN3CCOCC3)CC2)c1	96	77	96	-14
CCc1ccc(OC(=O)c2sc3ncn(Cc4cccc(F)c4)c(=O)c3c2C)cc1	119	100	109	.
CCN(CC)S(=O)(=O)c1cccc(C(=O)NC(C)C(c2cccs2)N2CCCC2)c1 (stereo unspecified)	84	92	.	-11
N#CC1=C(CBr)NC(CBr)=C(C#N)C12CCCCC2	131	64	.	-47
Cc1ccc(Oc2cc(C)nc(-c3ccccc3O)n2)cc1	93	89	.	-46
COC(=O)C(Cc1ccccc1)NC(=O)c1n[nH]c(=O)c2ccccc12 (stereo unspecified)	103	101	.	1
COC(=O)c1ccccc1NC(=O)CN(c1ccc(Cl)cc1)S(=O)(=O)c1ccc(OC)cc1	102	92	103	-7
CCC(CC)C(=O)N1CC(=O)Nc2ccc(F)cc2C1c1ccccc1 (stereo unspecified)	99	89	102	-11
CCCNC(=O)C1CCN(c2nc3ccccc3n2Cc2ccccc2F)CC1	109	89	101	-6
COc1ccc(C)cc1Nc1nc(-c2cccc(Cl)c2)c2c(n1)-c1ccccc1OC2	83	95	100	-8
COc1ccc2scc(N3CCN(CCc4ccccc4)CC3)c(=O)c2c1	.	.	104	-17
C=CCn1c(N)c(C(=O)OCC)sc1=S	.	.	107	-90
CCOc1ccccc1NC(=O)Cn1c(=O)n(CCCC(=O)NCCOC)c(=O)c2cc(OC)c(OC)cc21	91	97	100	4
SMILES	Sa growth inh	Sa growth inh second temp	GIV-Gai inh	HCMV NEC inh
CCOC(=O)C(CC)Sc1ncnc2sc3c(c12)CCCC3 (stereo unspecified)	97	87	111	-28
COC(=O)c1c(NC(=O)c2ccc(C)cc2)sc(C)c1C	90	99	108	.
O=C(Nc1cccc(-c2csnn2)c1)c1cccs1	84	87	95	-38
Cc1ccc(CNC(=O)CCCCn2c(=O)c3ccccc3n(Cc3c(C)cc(C)cc3C)c2=O)cc1	108	97	106	-6
COc1ccc(CNC(=O)c2ccc(CNC(N)=O)cc2)cc1	80	92	.	-4
Cc1nc2c(c(C)nn2C(C)(C)C)c(C)c1CCC(=O)O	99	90	105	-6
N#C/C(=C/c1cn(-c2ccccc2)nc1-c1cc2ccccc2o1)S(=O)(=O)c1ccc(Cl)cc1	101	78	101	-30
O=C(NCc1ccccc1)c1ccc2nc3ccccc3c(=O)n2c1	103	84	112	.
COc1cc2c(cc1OC)C1CN3CCc4cc(OC)c(OC)cc4C3CN1CC2 (stereo unspecified)	106	85	103	.
COc1ccccc1N(CC(=O)Nc1ccc2c(c1)OCO2)S(=O)(=O)c1ccc(C)cc1	106	89	102	-5
CN1C(=O)C(C)(C)c2cc(S(=O)(=O)N3CCCC3C(=O)NCc3ccc(F)cc3)ccc21 (stereo unspecified)	104	87	104	.
CCn1c(CN(c2ccc(F)cc2)S(C)(=O)=O)nnc1SCC(=O)Nc1nccs1	.	.	104	-16
Cc1cc(C)nc(N/C=C(\C#N)C(=O)c2ccoc2C)n1	102	94	99	-16
COc1ccc(NC(=O)C2CCCN(c3ccc4cc(S(=O)(=O)N5CCCC5)ccc4n3)C2)cc1OC (stereo unspecified)	.	.	106	-34
COc1ccc(C(=O)c2c(C(F)(F)F)oc3c2C(=O)c2ccccc2C3=O)cc1OC	67	56	101	44
Cc1cc(NC(=O)CCn2c(=O)c3cccn3c3cccnc32)ccc1Br	88	99	108	.
O=C(CCC1CCCC1)NCc1ccccn1	130	95	101	-2
Cc1cc(=O)oc2cc(OC(=O)/C=C/c3ccccc3)ccc12	92	88	.	-9
Cc1ccc(OCc2nnc(SCC(=O)N(C)Cc3ccc(Cl)s3)n2N)c(C)c1	105	72	.	15
COc1cc(CNCCO)ccc1OCc1ccc2c(c1)n(C)c(=O)n2C	.	.	102	-18
O=C(NCCn1cc(SCc2cccc(F)c2)c2ccccc21)c1cccc(C(F)(F)F)c1	114	92	108	16
Cc1ccc(-c2nc3ccccc3o2)cc1NC(=O)c1ccc2c(c1)OCO2	107	91	110	-15
N#CCOc1ccc2c(=O)cc(-c3ccccc3)oc2c1	95	88	100	-2
CN(Cc1ccccc1)C(=O)CSc1nc(-c2ccc(F)cc2)cc(C(F)(F)F)n1	86	80	103	-14
O=C(Nc1cc(-c2ccc(F)c(F)c2)no1)c1ccccc1F	83	97	97	8

Quoted at random: three entries already listed
SMILES	Sa growth inh	Sa growth inh second temp	GIV-Gai inh	HCMV NEC inh
COc1ccc(NC(=O)C2CCCN(c3ccc4cc(S(=O)(=O)N5CCCC5)ccc4n3)C2)cc1OC (stereo unspecified)	.	.	106	-34
O=C(NCc1ccccc1)c1ccc2nc3ccccc3c(=O)n2c1	103	84	112	.
Cc1nc2c(c(C)nn2C(C)(C)C)c(C)c1CCC(=O)O	99	90	105	-6

Compound profiles, as listed above. Order of screens: Sa growth inh	Sa growth inh second temp	GIV-Gai inh	HCMV NEC inh
`CCn1c(CN(c2ccc(F)cc2)S(C)(=O)=O)nnc1SCC(=O)Nc1nccs1` across the screens: .	.	104	-16
`COc1ccc(C(=O)c2c(C(F)(F)F)oc3c2C(=O)c2ccccc2C3=O)cc1OC` across the screens: 67	56	101	44
`Cc1cc(=O)oc2cc(OC(=O)/C=C/c3ccccc3)ccc12` across the screens: 92	88	.	-9
`Cc1nc2c(c(C)nn2C(C)(C)C)c(C)c1CCC(=O)O` across the screens: 99	90	105	-6
`Cc1cc(NC(=O)CCn2c(=O)c3cccn3c3cccnc32)ccc1Br` across the screens: 88	99	108	.

The main list resumes, starting 4 compounds before the break.
SMILES	Sa growth inh	Sa growth inh second temp	GIV-Gai inh	HCMV NEC inh
Cc1ccc(-c2nc3ccccc3o2)cc1NC(=O)c1ccc2c(c1)OCO2	107	91	110	-15
N#CCOc1ccc2c(=O)cc(-c3ccccc3)oc2c1	95	88	100	-2
CN(Cc1ccccc1)C(=O)CSc1nc(-c2ccc(F)cc2)cc(C(F)(F)F)n1	86	80	103	-14
O=C(Nc1cc(-c2ccc(F)c(F)c2)no1)c1ccccc1F	83	97	97	8
COC(=O)c1cn(Cc2cc(OC)ccc2OC)cc(F)c1=O	99	94	104	-15
O=C(O)c1ccccc1OCCOc1ccccc1	99	100	.	10
O=C(NCc1ccccc1)c1cccn1-c1cccnc1	.	.	109	-18
Cc1ccc2cc(C#N)c(SCC(=O)Nc3ccccc3)nc2c1	103	95	98	-1
CC(NC(=O)C1CCCC1)c1ccccc1 (stereo unspecified)	114	109	103	6
Cc1oc2cc(O)ccc2c(=O)c1Oc1ccc(Cl)cc1	92	86	95	-18
Cc1onc(-c2c(Cl)cccc2Cl)c1C(=O)N=C(N)N1CCCC1	101	93	108	-21
O=C1c2ccccc2S(=O)(=O)N1CC(O)Cn1c2ccc(Br)cc2c2cc(Br)ccc21 (stereo unspecified)	.	.	103	-19
Cc1ccc2cc3c(nc2c1)N(C(=O)CC(C)C)CC3	.	.	106	14
O=C(COC(=O)c1cc(=O)[nH]c2ccccc12)NCc1ccco1	111	97	.	-10
CSc1ccc(C2C(C(=O)Nc3ccccc3)=C(C)Nc3nc4ccccc4n32)cc1 (stereo unspecified)	114	96	107	-6
O=C(NCCCO)c1ccc(CSc2nc3ccccc3c(=O)[nH]2)cc1	67	95	96	20
COCCNc1nc2c(S(=O)(=O)c3ccc(C)c(C)c3)nnn2c2ccc(Cl)cc12	114	76	106	-5
Nc1ccc(N2CCCCC2)cc1N1CCCCC1	14	7	.	-11
O=c1cc(NCc2ccccc2)nc2ccccn12	99	85	.	-37
COc1ccc(S(=O)(=O)NCCc2nnc3ccc(SCC(=O)Nc4cc(C)cc(C)c4)nn23)cc1	107	81	155	.
CNC(=O)c1sc(Nc2ccc(OC)cc2)nc1C	80	90	.	-26
O=c1[nH]ccn(-c2cc(F)cc(F)c2)c1=O	.	.	99	-26
Cc1nn(CCCC(=O)O)c(=O)c2c1sc1ccccc12	124	86	106	.
CCc1nc2ccccc2n1CC(O)COc1cc(C)ccc1C (stereo unspecified)	.	.	103	-20
Cc1ccc(-c2nonc2NC(=O)c2ccc(F)cc2)cc1C	108	86	103	-19
COc1ccc(/C=C(/NC(=O)c2ccccc2)C(=O)N2CC3(C)CC2CC(C)(C)C3)cc1 (stereo unspecified)	74	94	101	.
COc1ccc(NC(=O)c2c(-c3ccc(C)cc3)nnc3ccccc23)cc1Cl	82	90	102	.
COc1ccccc1C(=O)N(c1ccc(C)cc1)S(=O)(=O)c1ccc(Cl)cc1	104	79	102	-51
Cc1cc(C)cc(N2CC34C=CC(O3)C(C(=O)OCC(=O)NC3CCCC3)C4C2=O)c1 (stereo unspecified)	104	98	98	-27
SMILES	Sa growth inh	Sa growth inh second temp	GIV-Gai inh	HCMV NEC inh
CSc1ccccc1NC(=O)CC1Nc2ccccc2NC1=O (stereo unspecified)	90	85	101	-19
O=C(NCC1CCCO1)c1ccc(CN2C(=O)CCn3nc(-c4ccc(Cl)cc4)cc32)cc1 (stereo unspecified)	.	.	105	-13
COc1ccc(C(=O)N2CCC(c3nc4ccccc4o3)CC2)cc1	106	87	98&104	-23&-24
OCc1ccccc1CNc1ccc(F)cc1	84	91	95	-6
NC(=O)c1ccc(NC(=O)c2ccccc2C(=O)O)cc1	111	95	110	-33
O=C1NC(c2ccco2)Nc2ccccc21 (stereo unspecified)	100	79	103	-9
